PINK1 modulator = modulators of PINK1 expression | 410,000 tested, 0.2% active | PINK1 immunofluorescence, high-content cytometry, 24 h | Potency, µM (highest dose often 76.6 µM), for inactives: at the highest dose activation (PINK1 increase), hits mostly activators; active = well fitted activation curve with a large enough effect; inconclusive = small, poorly fitted or top-dose-only effect; inactive = flat fitted curve, though single readings scatter; cell line not stated here;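 further: potency means the concentration at half of the fitted maximal effect; % of control where 0% means no effect; nearly all actives have a fitted effect of over 65% in size; a mitochondrial uncoupler was the plate control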
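PINK1 protein, normally rapidly degraded, was detected by immunofluorescence after 24 hour compound treatment of a stable cell line. Titration data (5 concentrations) came from laser-scanning cytometry, with CCCP-treated wells as controls.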
Menin-MLL FL inh = displaces fluorescein MLL peptide from human menin | Fluorescence polarization, fluorescein-MLL peptide displacement from menin | FP activity change, % at 61.4 µM | 290,000 tested, under 10 active | AID 1766; inconclusive = falling polarisation curve, or a change in total fluorescence; inactive = total fluorescence flat and polarisation flat or rising; no compound was filed as active; the % refers to the polarisation; negative = inhibition;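 further: % of control where 0% means no effect; inhibitors lower the polarisation; unlabelled MLL peptide was the positive control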
TRPML1 agonist = agonists of human TRPML1 channel; 410,000 tested, 0.12% active; Q9GZU1; AID 624414; activation, % (no concentration beside the values); TRPML1-expressing cells, Ca2+ dye fluorescence, FDSS; host cell line not named in the record; reference of the full effect not given here; in the data active = activation above about 50%; inconclusive = about 30% to 50%; inactive = below about 30%; further: 0% is about no effect; the text of the record puts the active cut at 80%
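Calcium fluorescence on an FDSS kinetic reader gave the read-out. Tet-induced TRPML1-DL cells were plated overnight, dye-loaded (Ca8 with quencher, 45-90 min, room temperature, dark), then read 110 s after compound addition, and again 110 s after 4uM final 54-4 (EC80).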
TRPML1 blocker = blocks the human TRPML1 channel | 390,000 tested, 0.02% active | TRPML1-inducible cells, Ca2+ dye fluorescence, FDSS; hits give low values; inhibition of EC80 agonist-evoked calcium signal | activity change, negative = inhibition, % (concentration not given with the values); in the data active means activity change below about -50%; inconclusive means about -30% to -50%; inactive means above about -30%;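 further: stimulus is agonist 54-4 at its EC80 concentration; on the % scale 0 is the no-effect control and ±100 the full control effect; compound concentration not given in the record; the text of the record puts the active cut at -80%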
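TRPML1-DL cells, Tet-induced overnight (~16 h, 37 °C) at 1,500 cells/well, were loaded with Ca8 no-wash dye plus quencher for 45-90 min at room temperature. Compounds were pinned during FDSS kinetic reading; agonist 54-4 at EC80 (4 uM final) then added.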
Sfp PPTase inh = Sfp phosphopantetheinyl transferase inhibition; Q9F4F7; Biochemical Sfp PPTase activity, qHTS; Potency, µM, for inactives: max response, negative = inhibition, hits mostly inhibitors; 310,000 tested, 3.5% active; AID 1490; active means well fitted inhibition curve with a large enough effect; inconclusive means small, poorly fitted or top-dose-only effect, or another doubt; inactive means no such curve, though single readings can be large or run the other way;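 further: the enzyme is Sfp with the accession as filed and its product quenches rhodamine fluorescence; potency means the concentration at half of the fitted maximal effect; 0% = enzyme reaction without inhibitor and -100% = no enzyme wells; top concentration of the series not given in the record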
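Fluorescence-quenching assay: 15 nM Sfp-PPTase preincubated 15 min at room temperature with compound, then 5 uM rhodamine-CoA and 12.5 uM BHQ-2-labelled YbbR peptide added. Fluorescence (ex 525/em 598 nm) read at start and after 30 min; difference gives rate.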
TRPV1 PAM = human TRPV1 potentiation; 320,000 tested, 0.02% active; potentiation, % at 8.33 µM; TRPV1-expressing cells, Fluo-8 calcium influx, capsaicin EC20 potentiation; host cell line not named in the record; control for the full effect not named in the record; Q8NER1; active means potentiation above 80%; inconclusive means 30% to 80%; inactive means below 30%; further: 0% is about no effect
Target sequence (Q8NER1 whole entry, looked up): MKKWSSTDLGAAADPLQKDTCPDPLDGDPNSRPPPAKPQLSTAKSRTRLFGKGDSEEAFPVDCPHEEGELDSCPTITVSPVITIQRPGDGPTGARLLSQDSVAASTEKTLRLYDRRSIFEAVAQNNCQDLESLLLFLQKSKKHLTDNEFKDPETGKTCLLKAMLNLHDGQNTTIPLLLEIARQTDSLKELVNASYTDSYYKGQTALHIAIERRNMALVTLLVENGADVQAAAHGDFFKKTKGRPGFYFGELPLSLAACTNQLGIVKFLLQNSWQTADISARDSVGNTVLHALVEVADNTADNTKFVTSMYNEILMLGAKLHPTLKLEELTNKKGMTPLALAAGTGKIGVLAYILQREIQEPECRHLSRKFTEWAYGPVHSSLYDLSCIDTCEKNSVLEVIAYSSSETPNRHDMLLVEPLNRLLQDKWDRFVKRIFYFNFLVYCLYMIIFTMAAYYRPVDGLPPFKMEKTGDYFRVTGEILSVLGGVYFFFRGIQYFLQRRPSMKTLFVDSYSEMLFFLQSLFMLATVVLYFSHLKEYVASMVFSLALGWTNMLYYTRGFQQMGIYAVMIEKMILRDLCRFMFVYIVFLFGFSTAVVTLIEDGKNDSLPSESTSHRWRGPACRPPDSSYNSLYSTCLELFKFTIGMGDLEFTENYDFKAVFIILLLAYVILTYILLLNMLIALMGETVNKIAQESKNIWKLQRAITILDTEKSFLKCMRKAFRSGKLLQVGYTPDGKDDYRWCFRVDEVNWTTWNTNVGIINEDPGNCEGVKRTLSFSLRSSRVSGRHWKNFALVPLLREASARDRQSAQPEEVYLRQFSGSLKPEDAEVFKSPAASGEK
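TRPV1-expressing cells were cultured overnight at 35.5C and loaded with Fluo-8 calcium dye for 40 to 90 min at room temperature. After a 10 s baseline, compound was added and calcium influx was read kinetically for 3 min (ex 480/em 520 nm).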
ClpP mod = qHTS Assay for Activators of ClpP; ATP-dependent Clp protease proteolytic subunit (Bacillus subtilis (strain 168)), P80244; purified B. subtilis ClpP, FRET peptide cleavage, 20 min; Potency, µM (doses to about 57.5 µM), for the others: at the highest dose activity change, negative = active; 340,000 tested, 1.9% active; active = well fitted falling curve with a large enough effect; inconclusive = small, poorly fitted or top-dose-only effect; inactive = no such curve, though single readings can be large or run the other way; further: potency means the concentration at half of the fitted maximal effect; the source files actives as falling curves though it sought activators and does not explain the sign; nearly all actives have a fitted effect of over 65% in size; many hits overshoot -100%
Target sequence (P80244 whole entry, looked up): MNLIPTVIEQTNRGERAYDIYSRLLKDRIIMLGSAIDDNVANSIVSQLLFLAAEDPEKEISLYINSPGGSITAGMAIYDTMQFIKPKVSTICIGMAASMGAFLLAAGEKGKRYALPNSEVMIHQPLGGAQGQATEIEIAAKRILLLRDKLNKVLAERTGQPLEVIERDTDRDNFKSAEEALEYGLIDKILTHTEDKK
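Purified B. subtilis ClpP, 10 microg/mL final in Tris/HCl pH8 with KCl, BSA, glycerol and Tween-20, cleaved an Abz/nitrotyrosine-quenched decapeptide. Fluorescence (ex 320, em 430) was read at 0 and 20 min at room temperature. Delta was normalized to 5.8 microM ADEP and DMSO/no-enzyme controls.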
The depositor's hits bear a star; u = inconclusive; x = not tested or not shown; [ ] = dose if it differs, or a comment. Not a hit list; 4.4% or so of the library scored in one or more.

SMILES	PINK1 modulator	Menin-MLL FL inh	TRPML1 agonist	TRPML1 blocker	Sfp PPTase inh	TRPV1 PAM	ClpP mod
O=C(N/N=C\c1ccc(-c2ccccc2[N+](=O)[O-])o1)C1COc2ccccc2O1 (configuration not stated)	0.2%	-2.0	1.9	5.8	2.4%	0.8	u
OCCN1CCN(c2ncnc3c2ncn3[C@H]2CN(Cc3ccc(-c4ccccc4)cc3)C[C@@H](CO)O2)CC1	0.6%	x	1.3	-4.6	x	x	-0.3%
Cn1c(=O)c2cc(NC(=O)c3ccccc3Cl)c(=O)oc2n(C)c1=O	x	1.9	-0.4	-16.9	-13.2%	6.3	-20.7%
CCc1cccc(CC)c1-n1nnc2c(sc3nc(C)cc(C)c32)c1=O	-0.6%	x	-0.6	-3.9	x	x	-1.8%
NC(=O)c1ccsc1NC(=O)CSc1n[nH]c(N)n1	-1.0%	x	0.0	-6.0	x	x	-23.3%
CN(C)CCCN(C(=O)c1ccc2ccccc2c1)c1nc2cc3c(cc2s1)OCO3	-0.9%	-0.6	1.2	26.7	-4.9%	3.0	-1.0%
CCOC(=O)C1=NOC(CNc2ncc(C(F)(F)F)cc2Cl)C1 (configuration not stated)	0.9%	1.5	1.1	1.6	15.9%	-7.0	x
CC(=O)c1cccc(NC(=O)N2CCCC2C(=O)Nc2ccc3c(c2)OCCO3)c1 (configuration not stated)	-0.6%	1.9	0.2	-8.7	7.7%	-3.1	x
CCNC(=O)NC(=O)COC(=O)C1CSC2(C)CCC(=O)N12 (configuration not stated)	2.6%	2.4	-0.9	-5.8	15.6%	14.5	x
C=CCOc1ccc(C2NC(=O)c3ccccc3O2)cc1OC (configuration not stated)	-1.5%	x	-0.2	-2.0	x	x	u
Cc1cc(C)cc(NS(=O)(=O)c2c(C)[nH]c(=O)[nH]c2=O)c1	3.1%	-6.2	-0.5	-4.2	12.4%	-7.5	-11.0%
Cc1nc2ccccc2c2c1C(=O)N(C1CCCCCCC1)C2=O	0.1%	-1.0	-0.6	8.5	13.5%	2.1	-3.9%
O=C(c1cccc(S(=O)(=O)N2CCCC2)c1)N1CCN(Cc2ccccc2)CC1	-0.2%	x	0.3	3.2	x	-8.5	0.0%
Cc1ccnc(NC(=O)C2COc3ccccc3O2)c1 (configuration not stated)	-1.4%	-10.5	0.3	19.7	-10.4%	-3.9	-0.5%
COCCCNC(=O)CS(=O)Cc1nc(-c2ccccc2C)oc1C (configuration not stated)	0.8%	-0.8	-0.1	1.9	16.4%	14.6	-3.7%
CCOC(=O)c1c(-c2ccc(C)cc2)csc1NC(=O)c1cc2ccccc2oc1=O	3.7%	11.2	-1.1	-2.3	u	1.6	x
CCCN(CCC)CCCNC(=O)C(NS(=O)(=O)c1ccc2c(c1)CCC(=O)N2)c1ccccc1 (configuration not stated)	0.3%	-6.3	0.1	-21.3	14.9%	-0.2	x
CCOC(=O)c1c(NC(=O)c2cc(C)on2)sc(C)c1C	1.1%	x	-0.8	7.3	x	x	1.7%
Nn1c(SCC(=O)Nc2ccc3c(c2)OCO3)nnc1C1CCCCC1	2.4%	2.5	1.3	18.4	15.5%	20.9	1.3%
O=C(COC(=O)[C@@H]1CC(O)CN1S(=O)(=O)c1ccc2c(c1)OCCO2)Nc1cc(F)ccc1F (some centres not stated)	-0.1%	x	-0.7	2.4	x	x	-0.6%
COc1ccccc1C(=O)Nc1nnc(C)s1	-1.3%[38.3 µM]	0.1	1.6	-9.3	13.3%	0.3	-3.9%
CCOc1ccc(CN2C(=O)c3ccccc3Sc3ccc(C(=O)OC)cc32)cc1	3.6%	x	2.0	44.4	x	x	-4.7%
CC(C)c1nnc(NC(=O)CS(=O)(=O)Cc2ccccc2)s1	0.0%	6.3	-0.7	-2.2	-27.4%	8.2	x
CCOC(=O)C1CCN(S(=O)(=O)c2cnc[nH]2)CC1	4.9%	1.1	0.0	0.0	17.4%	-22.1	-0.3%
CN(C)CCCn1c(SCCN2C(=O)c3ccccc3C2=O)nc2ccccc2c1=O	-0.7%	-3.1	0.1	-1.9	13.6%	14.8	-2.1%
SMILES	PINK1 modulator	Menin-MLL FL inh	TRPML1 agonist	TRPML1 blocker	Sfp PPTase inh	TRPV1 PAM	ClpP mod
Nc1c(NCCCN2CCOCC2)c2ccccc2oc1=O	3.3%[38.3 µM]	0.7	0.0	-9.5	u	0.0	-10.7%
Cc1cccc(NC(=O)CS(=O)CC(=O)Nc2cnc3ccccc3c2)c1C (configuration not stated)	3.1%	-7.2	0.3	-2.2	-4.5%	9.2	x
COc1ccccc1NC(=O)CSc1nnc(CC(=O)Nc2cccc(C(F)(F)F)c2)n1C	-0.8%[38.3 µM]	2.1	-1.0	18.3	1.9%	5.7	-0.7%
Cc1ccc(NS(=O)(=O)c2ccc(C(=O)N3CCOCC3)cc2)cc1	-0.2%	x	0.7	1.0	x	8.1	6.5%
CCN(C(=O)COc1nc(C)cc(C)c1C#N)c1ccccc1	-1.1%	-2.3	-0.2	-6.2	21.9%	19.6	-1.8%
COc1cccc(NS(=O)(=O)Cc2ccccc2)c1	2.8%	1.9	-0.9	2.8	16.8%	-9.0	-0.4%
C/C(=N\NC(=O)COc1cccc2ccccc12)c1cccs1	12.4%	-0.1	0.2	12.8	2.1%	8.6	-4.7%
CC(=O)c1cccc(NC(=O)C2CC(=O)N(CCc3ccccc3)C2)c1 (configuration not stated)	-0.1%	-3.7	0.1	-0.2	2.2%	-3.2	-1.3%
O=C(N[C@H]1C/C=C\C(c2ccc(F)cc2)N(Cc2ccccc2)C(=O)C1)OCC1c2ccccc2-c2ccccc21 (some centres not stated)	0.5%	x	0.2	19.4	x	x	-2.0%
Cc1cccnc1NC(=O)c1ccc2c(c1)OCCO2	-1.0%	x	0.5	12.8	x	-2.6	-2.7%
CC1CN(C(=O)c2cc(S(=O)(=O)N3CCCC3)ccc2Cl)CC(C)O1 (configuration not stated)	1.9%	1.7	-0.6	-1.2	11.4%	2.0	0.2%
C[C@H](NC(=O)c1[nH]cnc1C(=O)Nc1ccc(CNC(=O)OC(C)(C)C)cc1)C(=O)OCc1ccccc1	3.9%	0.3	2.1	1.0	-1.8%	10.6	85.8%
CC(NCCS(=O)(=O)c1ccc(Cl)cc1)c1cccc(Cl)c1 (configuration not stated)	0.1%	1.9	0.5	-13.7	16.5%	-3.1	x
O=C(Nc1ccc(N2CCOCC2)cc1N1CCOCC1)c1ccc(F)cc1	-0.5%	x	1.1	9.4	x	x	2.8%
O=C1CCCc2ccccc2N1Cc1ccccc1Cl	2.8%	6.9	1.0	-5.0	-7.6%	-9.0	-2.1%
N#Cc1ccc2c(c1)nnn2-c1ccccc1	-1.6%	x	0.2	23.6	x	x	x
COc1ccc2c(c1OC)C(=O)OC2Nc1ncc(Br)cc1Br (configuration not stated)	x	4.0	0.1	-1.5	16.7%	6.2	2.0%
CC(=O)N1CCN(c2ccc(NC(=O)c3ccc4c(c3)OCCO4)cc2)CC1	x	4.6	0.0	-9.6	16.9%	7.7	-21.4%
Cc1cc(C)cc(NC(=O)N(C)Cc2ccccc2)c1	4.6%	5.2	0.9	13.9	11.4%	x	x
O=C1c2ccccc2C(=O)N1CCc1nc(-c2ccncc2)no1	x	2.9	-0.5	-15.7	16.7%	-6.2	-1.3%
CCc1noc(C)c1C(=O)Nc1ccc(F)c(F)c1	0.2%	x	0.2	15.8	x	-4.0	-1.8%
CCOC(=O)c1cc(-c2ccc(OC)c(S(=O)(=O)NC3CCCCC3)c2)on1	3.5%	x	0.3	27.7	x	x	-21.5%
COCC1CCN(C(=O)c2oc3c(F)cccc3c2C)C1 (configuration not stated)	-0.8%	-0.7	-0.4	2.4	2.1%	-16.9	0.8%
O=C(O)c1ccc(NCc2nc3ccccc3n2Cc2ccccc2F)cc1	0.2%	0.9	x	x	17.8%	-3.5	2.8%
COc1cc(CNc2nc3ccccc3s2)cc(OC)c1OC	1.0%	-3.7	2.1	2.5	16.1%	4.8	x
SMILES	PINK1 modulator	Menin-MLL FL inh	TRPML1 agonist	TRPML1 blocker	Sfp PPTase inh	TRPV1 PAM	ClpP mod
COC(=O)c1ccc(C(=O)NC2CCCc3c2cnn3-c2cc(F)cc(F)c2)nc1 (configuration not stated)	5.2%	-3.0	0.2	-8.9	-18.4%	-17.8	0.7%
COC(=O)c1ccc(NC(C)C(=O)OC)c([N+](=O)[O-])c1 (configuration not stated)	0.5%	5.9	1.2	-12.3	-7.6%	17.3	-1.5%
NS(=O)(=O)c1ccc(NC(=O)CN2C(=O)c3ccccc3C2=O)cc1	1.8%	-0.4	-0.6	-0.7	4.7%	0.7	x
CC1=C(C(=O)N2CCOCC2)C(c2ccc(OC(F)F)cc2)NC(=S)N1c1ccccc1 (configuration not stated)	3.3%	-4.9	-0.2	-0.9	3.9%	-0.5	0.1%
CC1CCN(C(=O)Nc2cccc(NC(=O)N3CCC(C)CC3)c2)CC1	-1.9%	4.4	1.3	-10.1	2.3%	-0.1	u
CC(C)C[C@H](N)c1nnc(SCc2ccc(Cl)cc2Cl)o1	2.6%	x	0.4	2.6	x	x	-0.6%
CN1CCN(C(=O)C2CCN(c3ncc(C(F)(F)F)cc3Cl)CC2)CC1	0.7%	-4.0	1.0	-0.2	17.6%	-9.3	x
C1CCN(Cc2nnnn2C2CCCC2)CC1	5.1%[38.3 µM]	3.2	0.2	-21.3	-4.7%	2.7	0.2%
COc1ccccc1N=C1SC(C(=O)Nc2ccc(F)cc2)CC(=O)N1C (configuration not stated)	-1.5%	2.3	0.0	8.5	7.8%	9.6	-9.6%
COc1cc(C(O)c2nc(-c3cncnc3)cs2)ccc1F (configuration not stated)	0.2%	x	-0.3	x	x	x	-3.0%
O=c1c(C(c2ccc(Cl)cc2)c2c(O)nc3n(c2=O)CCCS3)c(O)nc2n1CCCS2	0.0%	7.5	2.5	26.7	-10.2%	22.8	x
CN(C(=O)COC(=O)/C=C/c1cccs1)C1CCCCC1	4.9%	x	-0.4	-5.0	x	x	x
CCOC(=O)C1=C(C)NC(=S)NC1c1ccc(OC(=O)c2ccco2)cc1 (configuration not stated)	7.7%	5.6	5.3	27.4	-13.7%	-3.8	-1.0%
CC(C)Cn1c(SCC(=O)N2CCCCC2)nc2ccccc2c1=O	3.0%	1.3	5.4	-16.5	-3.5%	-13.1	-1.4%
Cc1ccc2c(c1)c1c(n2CC(O)Cn2nc(C)c(Br)c2C)CCCC1 (configuration not stated)	u	3.5	-0.7	4.5	19.3%	-6.9	-19.8%

Bioassay records as filed in PubChem BioAssay.
